Compound activity deposited in PubChem by National Center for Advancing Translational Sciences (NCATS).
miR-21 reporter: qHTS Assay for Modulators of miRNAs and/orActivators of miR-21 | HeLa miR-21 FLuc reporter, luciferase, 48 h | 340,000 tested, under 10 active | Potency, µM (doses to about 38.3 µM), for inactives: at the top dose reporter change, positive = more light; active = well fitted rising curve with a large enough effect; inconclusive = small, poorly fitted or top-dose-only effect; inactive = no such curve, though single readings can be large or run the other way;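 also: % of control where 0% means no effect; miR-21 action dims this reporter so a rising signal means less miR-21 action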
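HeLa cells endogenously expressing miR-21, stably carrying CMV-driven firefly luciferase with a downstream miR-21 binding site, 2000 cells/well. Titrations up to approximately 40 uM, 48 hours; luciferase luminescence read.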
Rango-impB inh: qHTS Assay for Inhibitors of Rango (Ran-regulated importin-beta cargo) - Importin beta complex formation. Rango CFP/YFP FRET sensor + importin beta, 45 min. Potency, µM (series often up to 92.2 µM), inactives show at the top dose inhibition of complex formation. 0.031% of 340,000 active; active = rising FRET ratio curve, often small or poorly fitted; inconclusive = mostly compound fluorescence or quenching in the first reads; inactive = flat curves in all reads;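 also: potency is read from the fitted curve at half-maximal effect; 0% = DMSO wells and 100% = buffer wells lacking importin beta; nearly all actives have a fitted effect of over 15% in size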
Target sequence (Q14974 whole entry, looked up): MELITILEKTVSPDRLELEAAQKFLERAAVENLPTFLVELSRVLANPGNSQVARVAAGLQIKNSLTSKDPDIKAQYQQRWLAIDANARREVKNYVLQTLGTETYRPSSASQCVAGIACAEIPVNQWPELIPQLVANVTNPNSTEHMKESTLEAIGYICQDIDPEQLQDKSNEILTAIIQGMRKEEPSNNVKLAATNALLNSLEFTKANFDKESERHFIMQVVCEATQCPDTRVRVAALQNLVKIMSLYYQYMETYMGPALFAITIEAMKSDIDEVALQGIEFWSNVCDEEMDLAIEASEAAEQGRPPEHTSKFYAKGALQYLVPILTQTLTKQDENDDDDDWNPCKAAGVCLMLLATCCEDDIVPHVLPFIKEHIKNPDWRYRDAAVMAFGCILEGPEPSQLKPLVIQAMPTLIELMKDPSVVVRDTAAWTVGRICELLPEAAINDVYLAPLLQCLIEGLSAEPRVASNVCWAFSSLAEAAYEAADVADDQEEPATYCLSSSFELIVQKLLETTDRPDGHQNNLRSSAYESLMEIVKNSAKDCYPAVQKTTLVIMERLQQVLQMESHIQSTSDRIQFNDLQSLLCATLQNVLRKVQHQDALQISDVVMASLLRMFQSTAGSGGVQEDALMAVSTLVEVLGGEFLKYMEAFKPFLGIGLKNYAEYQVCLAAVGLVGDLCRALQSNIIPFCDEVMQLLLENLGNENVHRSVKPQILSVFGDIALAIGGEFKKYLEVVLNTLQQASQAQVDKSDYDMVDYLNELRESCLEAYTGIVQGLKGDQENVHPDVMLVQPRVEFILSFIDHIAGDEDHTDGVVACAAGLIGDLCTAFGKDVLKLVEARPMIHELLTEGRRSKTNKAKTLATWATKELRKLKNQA
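FRET biosensor Rango (snurportin 1 IBB between N-terminal EYFP and C-terminal Cerulean), 50 nM in PBS/1 mM DTT/0.02% Tween-20/0.1% BSA, preincubated 5 min RT with compound; 0.125 microM importin beta added, 45 min RT, CFP/YFP FRET ratio read.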
GLA inh pH 4.5: qHTS Assay for Inhibitors of Human alpha-Galactosidase at pH 4.5; purified enzyme, 4-MU-alpha-Gal fluorescence, pH 4.5; activity change, negative = inhibition, % at 105 µM; 230,000 tested, under 10 active; AID 1467, 2008; inconclusive = small, poorly fitted or top-dose-only inhibition, or a rising curve; inactive = flat fitted curve, though single readings scatter; no compound was filed as active;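 also: 0% = full activity with enzyme and -100% = basal without enzyme; dose as in the result columns while the protocol names 77 µM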
Rango release inh: qHTS Assay for Inhibitors of RanGTP induced Rango (Ran-regulated importin-beta cargo) - Importin beta complex dissociation; Snurportin-1 (Homo sapiens) + GTP-binding nuclear protein Ran (Homo sapiens) + Importin …; Biochemical FRET Rango-importin beta, RanGTP-induced dissociation; Potency, µM (highest dose often 46.1 µM), without a hit: top-dose activity change, negative = inhibition; 0.071% of 340,000 active; active means falling FRET ratio curve, often poorly fitted, with flat reads before Ran was added; inconclusive means other falling curves, or compound fluorescence or quenching; inactive means flat or rising ratio curve;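 also: potency is read from the fitted curve at half-maximal effect; % of control where 0% means no effect; nearly all actives have a fitted effect of over 45% in size; -100% = wells without RanGTP and RCC1; the record marks most hits as doubtful in a second field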
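Two FRET readings bracket the reaction: one 5 min after compound meets Rango–importin beta, another 45 min after RanGTP-RCC1 (0.6 uM Ran, 0.2 uM RCC1, 2 mM GTP) is added. Only the second defines inhibition.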
* marks the source's active call; other numbers are inactive results; ? = inconclusive; / = not tested or not shown. Only part of the results is shown. The share of hits here may be higher or lower than overall.

SMILES | miR-21 reporter | Rango-impB inh | GLA inh pH 4.5 | Rango release inh
C#C[C@]1(O)CC[C@H]2[C@@H]3CCC4=CC(=O)CC[C@@H]4[C@H]3CC[C@@]21C | / | 3.1% | / | 4.3%
CCCn1cc(S(=O)(=O)c2ccc(OC)cc2)c(=O)c2cc(OCC)ccc21 | -4.2% | ? | / | -11.4%
COc1ccc(S(=O)(=O)Nc2ccc3c(c2)n(C)c(=O)n3C)cc1F | 20.2% | -2.6% | / | ?
COc1ccc(-n2cnnc2SCCC#N)cc1 | -2.2% | 0.4% | 8.8 | -18.7%
CC1CCN(CCc2nc3cc(NC(=O)C(C)C)ccc3n2C)CC1 | -3.4% | -1.3% | / | 0.1%
CC(C)[C@H](NC(=O)[C@@H]1CSC2c3ccccc3C(=O)N21)C(=O)NCC1CCCO1 (some centres undefined) | -0.6% | -1.4% | / | 11.2%
CCOC(=O)c1cccc(NC(=O)CCc2nnc3ccc(N4CCOCC4)nn23)c1 | -0.1% | 4.9% | / | 15.8%
Cc1csc(=O)n1CC(=O)OCc1nnc(-c2ccccc2)o1 | / | 1.7% | / | 40.6%
CCOc1ccc(S(=O)(=O)Nc2ccc(S(=O)(=O)N3CCCCC3)cc2)cc1 | -3.7% | -2.1% | -15.3 | -16.2%
C=CCC1(CC=C)CCCN1C(=O)C1CCC(=O)N(CCc2ccccc2)C1 (centres undefined) | -55.7% | -3.5% | / | -9.7%
Cc1ccccc1NC(=O)Cc1c(O)c2ccccc2[nH]c1=O | -32.6% | 0.9% | -17.8 | -5.8%
O=C(NCC1COc2ccccc2O1)c1cccc(S(=O)(=O)N2CCN(c3ccccc3)CC2)c1 (centres undefined) | / | 2.3% | / | 19.5%
Cc1cc2cc(CN(Cc3ccco3)C(=O)C3CCCCC3)c(=O)[nH]c2cc1C | -2.9% | -2.0% | 1.4 | 19.7%
COCCn1c(SCC(=O)/C=C2\N(C)c3ccccc3C2(C)C)nnc1-c1ccncc1 | 3.0% | -3.3% | 0.5 | -33.2%
CCc1nnc(NC(=O)CSc2nnc(-c3ccco3)n2CCOC)s1 | 0.1% | -1.2% | -13.8 | -2.2%
COc1ccc(Oc2cccc(Cl)c2CNC(=O)CSCC(=O)O)cc1 | 0.8% | 1.5% | 1.1 | -6.8%
CNC(=O)C(=O)Nc1ccc2c(c1)N(S(=O)(=O)c1cccs1)CCC2 | / | 3.6% | / | -2.2%
COC(=O)[C@H](CCSC)NC(=O)N1CCN(Cc2ccccc2)CC1 | -0.9% | 0.8% | 4.2 | -0.8%
COc1ccc(CCNC(=O)c2ccc3c(c2)N(Cc2ccc(F)cc2)CCS3)c(OC)c1 | 18.0% | -1.9% | / | 9.2%
CCc1ccc(N(C(=O)Cc2cccs2)C(C(=O)NC2CCCCC2)c2cn(C)nc2C)cc1 (centres undefined) | -7.6% | 4.3% | -4.9 | 5.7%
CCOC(=O)CCC(=O)O[C@H]1[C@H](O[C@@H]2[C@@H](C)[C@H](O[C@H]3C[C@@](C)(OC)[C@@H](O)[C@H](C)O3)[C@@H](C)C(=O)O[C@H](CC)[C@@](C)(O)[C@H](O)[C@@H](C)C(=O)[C@H](C)C[C@@]2(C)O)O[C@H](C)C[C@@H]1N(C)C | 4.1% | 1.5% | 1.3 | 11.6%
CN(c1ccccc1)S(=O)(=O)c1cccc(NC(=O)c2cc(=O)c3ccccc3o2)c1 | ? | -8.7% | -3.6 | -7.7%
S=C(NCc1ccc(Cl)cc1Cl)Nc1ccccc1 | 2.0% | -2.3% | -2.8 | -8.7%
CSCCC(NC(=O)c1ccccc1Cl)C(=O)NCCOc1ccccc1 (centres undefined) | / | 3.3% | / | -19.2%
CCC(=O)N1c2ccc(S(=O)(=O)N3CCN(c4cc(C)ccc4C)CC3)cc2CC1C (centres undefined) | 3.2% | 1.2% | / | 5.4%
COC(=O)c1sccc1NC(=O)c1c(Cl)cccc1Cl | 3.3% | 3.5% | / | 8.8%
CCOC(=O)Nc1cccnc1Sc1ccc(Cl)cc1 | / | 0.2% | / | 0.5%
Fc1ccc2c(c1)C(c1ccncc1)=NNC(c1cccnc1)=N2 | -1.2% | 2.3% | 7.6 | -7.3%
O=c1[nH]c2ccccc2c2nc(-c3cccc(S(=O)(=O)N4CCCC4)c3)nn12 | -5.7% | -2.6% | 5.5 | 9.1%
CCC(C)NS(=O)(=O)c1ccc(OCC(=O)NCc2ccco2)cc1 (centres undefined) | -9.2% | -0.6% | 2.7 | -6.7%
Cc1ccc(/C=C/C(=O)OCC(=O)NCc2cccs2)o1 | / | -2.1% | / | -8.6%
Cc1nc(SCc2nc3ccc(Cl)cc3[nH]2)c2oc3ccccc3c2n1 | / | ? | / | -17.7%
C/C(=N\OC(=O)c1ccc(F)cc1)c1ccc(F)c(F)c1 | -2.6% | -2.8% | -1.6 | 0.1%
Cc1nc(N2CCN(C(=O)c3ccco3)CC2)c2c3c(sc2n1)CCCC3 | ? | 12.3% | -1.8 | 0.6%
C/C(Cn1ncc(N2CCOCC2)c(Cl)c1=O)=N\O | -3.7% | -1.3% | / | 3.7%
COc1ccccc1CN1CCC(n2nccc2NC(=O)c2ccccc2Cl)CC1 | 0.1% | 0.1% | / | 10.3%
CC(C)(C)c1ccc(C(=O)NCC(=O)N2CCCC2)cc1 | -42.5% | -2.4% | / | 0.0%
Cc1ccc(NCc2ccccc2OCc2ccccc2F)cc1 | -4.3% | 5.6% | 5.8 | 2.0%
C[C@@H](C(O)c1ccccc1)N(C)C(=O)CCc1ccccc1 (some centres undefined) | -2.1% | 3.4% | / | -16.9%
COc1ccc(NC(=O)COC(=O)c2cc([N+](=O)[O-])ccc2N2CCOCC2)cc1 | -2.3% | -0.8% | / | -11.2%
CCc1ccc(C(C)NC(=O)/C(C#N)=C\c2cn[nH]c2-c2ccccc2)cc1 (centres undefined) | 0.9% | 5.7% | 2.4 | 6.7%
O=C(Cn1cnc2ccccc2c1=O)Nc1nc2ccccc2s1 | 0.6% | 0.5% | 11.2 | -23.6%
COC(C[C@H]1O[C@@H]1[C@H](O)COCc1ccccc1)OC | -0.6% | -3.6% | -12.1 | 4.6%
COC(=O)CC1Oc2ccccc2N(Cc2ccc(C)cc2)C1=O (centres undefined) | 1.1% | -0.8% | -6.0 | 20.7%
COc1ccc(-n2nc(C(=O)NCC(=O)N(C)Cc3ccccc3)c3ccccc3c2=O)c(OC)c1 | -0.1% | 5.7% | / | 6.3%
COc1ccc(C(=O)N2CCc3[nH]nc(-c4ccccc4)c3C2)cc1 | -14.6% | -1.3% | / | 9.9%
Cc1ccc(S(=O)(=O)N(c2cccc(C(F)(F)F)c2)C2C=CS(=O)(=O)C2)cc1 (centres undefined) | -3.0% | -3.6% | -4.0 | -5.8%
Cc1nnsc1C(=O)NC1CCCc2c1cnn2-c1cc(F)cc(F)c1 (centres undefined) | -7.7% | 2.9% | / | -1.3%
CC1CCCN(c2nc3nonc3nc2N2CCCC(C)C2)C1 (centres undefined) | -4.5% | -2.3% | -10.2 | -4.0%
O=c1[nH]c(=O)n(C(c2ccccc2)c2ccccc2)cc1Br | -2.4% | -0.1% | 2.6 | 1.4%
CCOc1ccc(CN2CCN(Cc3ccsc3)C(CCO)C2)cc1CO (centres undefined) | -2.6% | 1.8% | 8.6 | 7.6%
COc1cc(/C=C2\SC(=O)N(CC(=O)Nc3ccc(C)cc3)C2=O)cc(Cl)c1OCC(=O)O | -2.5% | ? | / | -11.6%
Cc1cc(N2C(=O)C(O)=C(C(=O)c3cc4ccccc4o3)C2c2cccc(Br)c2)no1 (centres undefined) | -5.5% | ? | / | ?
O=C1NC(=O)N(Cc2ccccc2)C1=O | -0.2% | 2.4% | / | -0.9%
COc1ccc(NC(=S)NNC(=S)Nc2cccc(C(F)(F)F)c2)cc1 | -3.2% | 5.9% | -12.1 | 27.1%
COCCOC(=O)c1c(C)n(C)c2ccc(OC(=O)c3ccco3)cc12 | -4.8% | 2.6% | -4.8 | -18.4%
O=C(COC(=O)Cn1[nH]c(=O)c2ccccc2c1=O)Nc1ncc(Cl)cc1Cl | / | ? | / | -8.0%
O=C(NCCCn1ccnc1)C(=O)NCC(c1cccnc1)N1CCN(c2ccccc2)CC1 (centres undefined) | -7.3% | -2.1% | 5.0 | 2.2%
NCCc1ccn[nH]1 | / | -3.4% | 3.5 | -0.3%
O=C(NCCCN1CCOCC1)C(=O)NCc1ccccc1Cl | -2.2% | 2.7% | 2.0 | -16.7%

6 entries picked at random from the list so far, as already listed:
SMILES | miR-21 reporter | Rango-impB inh | GLA inh pH 4.5 | Rango release inh
COc1ccc(NC(=S)NNC(=S)Nc2cccc(C(F)(F)F)c2)cc1 | -3.2% | 5.9% | -12.1 | 27.1%
CCOc1ccc(CN2CCN(Cc3ccsc3)C(CCO)C2)cc1CO (centres undefined) | -2.6% | 1.8% | 8.6 | 7.6%
COCCOC(=O)c1c(C)n(C)c2ccc(OC(=O)c3ccco3)cc12 | -4.8% | 2.6% | -4.8 | -18.4%
COc1cc(/C=C2\SC(=O)N(CC(=O)Nc3ccc(C)cc3)C2=O)cc(Cl)c1OCC(=O)O | -2.5% | ? | / | -11.6%
O=C1NC(=O)N(Cc2ccccc2)C1=O | -0.2% | 2.4% | / | -0.9%
NCCc1ccn[nH]1 | / | -3.4% | 3.5 | -0.3%

New compounds follow
SMILES | miR-21 reporter | Rango-impB inh | GLA inh pH 4.5 | Rango release inh
CCOC(=O)c1sc2cc([N+](=O)[O-])cc(SCC(=O)OC)c2c1N | -0.7% | ? | 1.4 | 3.8%
COc1ccccc1C1(CCN=Cc2ccc(N(C)C)cc2)CCOC(C)(C)C1 (centres undefined) | 0.6% | 4.7% | -12.6 | 11.0%
Cc1ccccc1CSc1nnnn1-c1ccc(C(N)=O)cc1 | 9.1% | ? | / | 13.4%
CCOc1ccc(C(CC(=O)O)n2cnnn2)cc1OC (centres undefined) | -1.1% | 4.1% | 8.0 | 1.0%
O=C(NC(=S)Nc1ccccn1)c1ccc(-c2ccccc2)cc1 | -26.4% | ? | / | 0.5%
Fc1ccc(COc2ccc(Cl)cc2/C=N/Nc2nc(N3CCCC3)nc(N3CCCC3)n2)cc1 | -6.0% | 0.6% | 5.3 | 2.3%
CCNc1ccc(C(=O)OCC(=O)c2cc(C)n(Cc3ccc4c(c3)OCO4)c2C)cc1[N+](=O)[O-] | -8.7% | 0.6% | -4.1 | -3.2%
Cc1ccc(CSCc2ccc(C(=O)NC3CC3)o2)cc1 | -0.2% | 0.2% | / | -2.7%
COC(=O)[C@H](Cc1ccccc1)NC(=O)NCc1ccccc1OC | 0.0% | 6.6% | 6.0 | -15.5%
COCCNC(=O)CN1C(=O)CSc2ccc(S(=O)(=O)N3CCOCC3)cc21 | -2.1% | -0.6% | / | ?
Cc1c(C(=O)NC2CCCc3ccccc32)oc2ccc(S(=O)(=O)N3CCOCC3)cc12 (centres undefined) | -11.9% | 0.9% | -0.4 | -5.5%
Clc1ccc(OCCCN2CCc3ccccc3C2)c(Br)c1 | -0.5% | 0.2% | / | -8.0%
CCSc1nnc(NC(=O)c2cc3c(s2)CCCC3)s1 | -27.1% | 3.4% | -1.6 | 1.5%
O=C(Nc1cc(Oc2ccccc2)cc([N+](=O)[O-])c1)C12CC3CC(C1)CC(n1cnc(Cl)n1)(C3)C2 | 22.2% | 2.7% | -7.3 | -3.6%

Single records, from the list above. Order of values: miR-21 reporter	Rango-impB inh	GLA inh pH 4.5	Rango release inh
COCCNC(=O)CN1C(=O)CSc2ccc(S(=O)(=O)N3CCOCC3)cc21 as listed: -2.1%	-0.6%	/	?
CCNc1ccc(C(=O)OCC(=O)c2cc(C)n(Cc3ccc4c(c3)OCO4)c2C)cc1[N+](=O)[O-] as listed: -8.7%	0.6%	-4.1	-3.2%
